MITF inh = inhibitors of MITF, primary screen, MITF inhibitor project, cell-based, luminescence | TRPM1 promoter luciferase, 24 h | inhibition, % (test concentration not listed) | 0.28% of 37,000 active;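 active = most replicates at 85% or more, or half of them and the mean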;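 note: human melanocyte line stably carrying TRPM1 promoter luciferase reporter; 0% = vehicle wells and 100% = a positive control; the first replicate is given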
YB-1 expression = inhibitors of YB-1 gene expression, primary screen, cell-based, fluorescence; delta delta Cp (YB-1 minus CDIP) (no concentration beside the values); U2OS, qRT-PCR YB-1 vs CDIP delta delta Cp, 16 h; hits give high values; zero = DMSO, each unit about twofold; AID 434959, 2010; 0.37% of 30,000 active;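 active = delta delta Cp rounded down to an integer at or above 3, about 3 SD of DMSO wells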;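 note: higher means less YB-1 transcript or more CDIP transcript relative to DMSO; stock transfer was 100 nL into about 100 µL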
Shh pathway inh = Hedgehog pathway signaling inhibitors, primary screen, luminescence, Shh-LIGHT2 cells, Gli-luciferase; inhibition, % (concentration not given with the values); Shh-LIGHT2 Gli-luciferase reporter, 30 h; 2.1% of 22,000 active;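 active = replicate mean of 65% or more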;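 note: pathway switched on by Shh-conditioned medium diluted 1 in 25 in low serum; 100 nL library stock added to about 40 µL; 0% = median of neutral wells and 100% = positive control level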
PD-1 reverse act = activators reversing PD-1 mediated T-cell inhibition, primary screen, luminescence, primary human CD4 T cells, PD-L1 beads; CellTiter-Glo 96 h; activation, % (test concentration not listed); 29,000 tested, under 10 active; AID 2316, 2010;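 active = replicate mean of 50% or more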;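 note: 0% = median vehicle wells and 100% = positive control; 100 nL library stock added to about 50 µL; numbers are from one replicate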
Starred values were filed as active, the others as inactive; / = no result given.

SMILES | MITF inh | YB-1 expression | Shh pathway inh | PD-1 reverse act
COc1ccc(/C=C/C(=O)O[C@@H]2[C@@H](O)[C@@H](O)[C@H](O[C@H]3[C@@H]4C=CO[C@@H](O[C@@H]5O[C@H](CO)[C@@H](O)[C@H](O)[C@H]5O)[C@@H]4[C@@]4(CO)O[C@@H]34)O[C@H]2C)cc1 | -5 | -0.38 | -22 | -0.7
C[C@H](CO)N1C[C@H](C)[C@@H](CN(C)Cc2ccccc2)Oc2c(cccc2N(C)C)C1=O | -8 | -0.063 | -38 | -1.8
Cc1noc(C)c1NC(=O)Nc1ccc2c(c1)C(=O)N([C@H](C)CO)C[C@@H](C)[C@@H](CN(C)Cc1ccc(Oc3ccccc3)cc1)O2 | 4 | -0.47 | 67* | -1.7
CS(=O)(=O)N(CC(=O)Nc1cc(C(F)(F)F)ccc1Cl)c1ccc2c(c1)OCCO2 | -21 | / | / | -0.4
C[C@@H]1CN([C@@H](C)CO)C(=O)c2cccc(NS(C)(=O)=O)c2O[C@@H]1CN(C)S(=O)(=O)c1ccc(Cl)cc1 | -1 | -0.19 | 5 | /
C[C@H](CO)N1C[C@H](C)[C@@H](CN(C)C(=O)Nc2ccc(C(F)(F)F)cc2)Oc2ccc(NS(=O)(=O)c3cccs3)cc2C1=O | 2 | 0.14 | -11 | 0.5
Cc1ccccc1C(=O)Nc1cccc(NC(=O)COc2cc(C)c(Cl)c(C)c2)c1 | 12 | / | / | -1.1
COc1ccc(NC(=O)N(C)C[C@H]2Oc3ccc(NC(=O)Nc4ccc(F)cc4)cc3CC(=O)N([C@@H](C)CO)C[C@H]2C)cc1 | -9 | 0.094 | -5 | 0.6
COc1ccc(S(=O)(=O)N(C)C[C@@H]2Oc3ccc(NC(=O)NC4CCCCC4)cc3CC(=O)N([C@H](C)CO)C[C@H]2C)cc1 | -2 | 1.3 | -9 | 1.7
COc1ccc(S(=O)(=O)Nc2cccc3c2O[C@@H](CN(C)C(=O)Nc2ccc4c(c2)OCO4)[C@@H](C)CN([C@@H](C)CO)C3=O)cc1 | 3 | -0.17 | 3 | -1.1
C[C@@H]1CN([C@@H](C)CO)C(=O)Cc2cc(NC(=O)c3ccncc3)ccc2O[C@@H]1CN(C)S(=O)(=O)c1ccc(Cl)cc1 | -4 | -0.0055 | -3 | /
C[C@@H]1CN([C@H](C)CO)C(=O)Cc2cc(NC(=O)CCC(F)(F)F)ccc2O[C@H]1CN(C)Cc1ccc2c(c1)OCO2 | 4 | 0.31 | 8 | 1.0
Cc1noc(C)c1S(=O)(=O)Nc1cccc2c1O[C@H](CN(C)Cc1ccncc1)[C@H](C)CN([C@H](C)CO)C2=O | -4 | -0.14 | -11 | 0.3
COc1ccc(S(=O)(=O)N(C)C[C@H]2Oc3ccc(NC(=O)Nc4ccc(F)cc4)cc3CC(=O)N([C@@H](C)CO)C[C@H]2C)cc1 | 9 | 0.096 | -11 | /
C[C@H]1CN([C@@H](C)CO)C(=O)c2cc(NC(=O)CCCCCC(=O)Nc3ccccc3N)ccc2O[C@H]1CN(C)Cc1ccncc1 | 7 | 0.21 | / | 0.0

The last 3 compounds of the section before lead into the next:
SMILES | MITF inh | YB-1 expression | Shh pathway inh | PD-1 reverse act
Cc1noc(C)c1S(=O)(=O)Nc1cccc2c1O[C@H](CN(C)Cc1ccncc1)[C@H](C)CN([C@H](C)CO)C2=O | -4 | -0.14 | -11 | 0.3
COc1ccc(S(=O)(=O)N(C)C[C@H]2Oc3ccc(NC(=O)Nc4ccc(F)cc4)cc3CC(=O)N([C@@H](C)CO)C[C@H]2C)cc1 | 9 | 0.096 | -11 | /
C[C@H]1CN([C@@H](C)CO)C(=O)c2cc(NC(=O)CCCCCC(=O)Nc3ccccc3N)ccc2O[C@H]1CN(C)Cc1ccncc1 | 7 | 0.21 | / | 0.0
COc1ccc([N+](=O)[O-])cc1NC(=O)CCN1CCN(c2ccccc2OC)CC1 | -8 | / | / | -2.5
C[C@@H]1CN([C@@H](C)CO)C(=O)c2cccc(NC(=O)c3cnccn3)c2O[C@H]1CN(C)Cc1ccc(C(F)(F)F)cc1 | 6 | -0.36 | -2 | -2.0
COc1ccc(S(=O)(=O)N(C)C[C@H]2Oc3ccc(NS(=O)(=O)c4c(C)noc4C)cc3CC(=O)N([C@@H](C)CO)C[C@H]2C)cc1 | 11 | -0.52 | / | -0.1
CNC[C@@H]1Oc2ccc(NC(=O)CCC(F)(F)F)cc2CC(=O)N([C@@H](C)CO)C[C@@H]1C | -3 | 0.32 | -9 | 0.1
COc1ccc(NC(=O)Nc2ccc3c(c2)C(=O)N([C@@H](C)CO)C[C@H](C)[C@H](CN(C)Cc2ccncc2)O3)cc1 | 5 | 0.2 | / | 0.8
COc1ccc(S(=O)(=O)N(C)CCc2ccccn2)cc1 | 9 | / | / | 0.5
COc1ccc(S(=O)(=O)N(CC(=O)Nc2ccccc2)C2CCCCC2)cc1Cl | 5 | / | / | -1.1
C[C@H]1CN([C@@H](C)CO)C(=O)Cc2cc(NC(=O)Nc3ccc(F)cc3)ccc2O[C@@H]1CN(C)S(=O)(=O)c1ccccc1 | -4 | -0.054 | / | -0.9
O=C(NCCN1CCN(C(=O)c2cccc(Br)c2)CC1)C(=O)Nc1ccc(F)cc1 | 3 | / | / | -1.4
C[C@@H]1CN([C@H](C)CO)C(=O)c2cccc(NC(=O)c3ccc(-c4nccs4)cc3)c2O[C@H]1CN(C)C(=O)NC1CCCCC1 | 9 | 0.064 | -9 | /
CCC(=O)N1CCN(c2ccc(Cl)cc2NC(=O)COc2cc(C)cc(C)c2)CC1 | 10 | / | / | -7.2
O=C(NCc1ccccc1)c1nc2ncccn2n1 | 6 | / | -10 | 0.1
C[C@H](CO)N1C[C@H](C)[C@@H](CN(C)C(=O)Nc2ccc3c(c2)OCO3)Oc2ccc(NC(=O)CCN3CCOCC3)cc2C1=O | -3 | 0.34 | -22 | /
Cc1cccc(NC(=O)C(=O)NCCCn2ccnc2)c1 | -23 | / | / | 4.0
COc1ccc(S(=O)(=O)N(C)CC(=O)Nc2ccc3c(c2)OCCO3)cc1OC | -30 | / | / | 2.4
COc1ccc(S(=O)(=O)N(C)C[C@@H]2Oc3ccc(NC(=O)CCCN(C)C)cc3C(=O)N([C@@H](C)CO)C[C@@H]2C)cc1 | 1 | 2.3 | 3 | 1.9
CC[C@]12CCCN3CCc4c(n(c5ccccc45)C(=O)C1)[C@@H]32 | -3 | -0.11 | -1 | 4.0
Cc1noc(C)c1S(=O)(=O)Nc1cccc2c1O[C@@H](CN(C)S(=O)(=O)c1ccc(Cl)cc1)[C@@H](C)CN([C@@H](C)CO)C2=O | 4 | -0.075 | 106* | /
COc1ccc(S(=O)(=O)N(C)C[C@H]2Oc3ccc(NS(=O)(=O)c4ccc(F)cc4)cc3CC(=O)N([C@@H](C)CO)C[C@@H]2C)cc1 | -6 | -0.054 | 4 | /
Cn1c(=O)c2[nH]c(C3CCCC3)nc2n(C)c1=O | -10 | -0.075 | 43 | /
CC(C)(C)NC(=O)c1cccc(NC(=O)COc2ccc3ccccc3c2)c1 | 58 | / | / | 3.1
CCCN(C)C[C@@H]1OCCCC[C@@H](C)Oc2ccc(NS(=O)(=O)c3c(C)noc3C)cc2C(=O)N([C@H](C)CO)C[C@@H]1C | 1 | -0.36 | 35 | /
CC(C)NC(=O)Nc1cccc2c1O[C@H](CN(C)CC1CCCCC1)[C@H](C)CN([C@@H](C)CO)C2=O | -10 | 0.24 | 0 | 0.8
CC(=O)OC[C@H]1O[C@@H](Oc2ccccc2COC(=O)C2(O)C=CCCC2=O)[C@H](OC(C)=O)[C@@H](O)[C@@H]1O (stereo not given in full) | 4 | 0.42 | 15 | 0.5
C[C@H](CO)N1C[C@H](C)[C@H](CN(C)S(=O)(=O)c2ccc(Cl)cc2)Oc2ccc(NC(=O)Nc3ccc(C(F)(F)F)cc3)cc2CC1=O | 50 | 0.63 | 72* | -5.4
C[C@H](CO)N1C[C@H](C)[C@@H](CN(C)Cc2ccc(C(=O)O)cc2)Oc2ccc(NC(=O)Nc3ccc(C(F)(F)F)cc3)cc2C1=O | -12 | -0.022 | / | 1.9
C[C@@H]1CN([C@H](C)CO)C(=O)c2cc(NS(C)(=O)=O)ccc2O[C@H]1CN(C)C(=O)Nc1ccccc1 | -11 | -0.35 | -12 | /
Cc1cc(C)c(NC(=O)CSc2nc3ccc(NC(=O)c4ccccc4Cl)cc3s2)c(C)c1 | -23 | / | / | -1.6
CC(C)NC(=O)Nc1ccc2c(c1)CC(=O)N([C@@H](C)CO)C[C@H](C)[C@H](CN(C)C(=O)NC(C)C)O2 | -1 | 0.032 | -6 | /
C[C@@H]1CN([C@H](C)CO)C(=O)c2cc(NC(=O)C3CCCCC3)ccc2O[C@H]1CN(C)C(=O)Nc1ccc2c(c1)OCO2 | 8 | -1 | / | 2.6

For reference, some entries already given:
SMILES | MITF inh | YB-1 expression | Shh pathway inh | PD-1 reverse act
C[C@@H]1CN([C@H](C)CO)C(=O)c2cc(NS(C)(=O)=O)ccc2O[C@H]1CN(C)C(=O)Nc1ccccc1 | -11 | -0.35 | -12 | /
Cc1cc(C)c(NC(=O)CSc2nc3ccc(NC(=O)c4ccccc4Cl)cc3s2)c(C)c1 | -23 | / | / | -1.6
CC(C)NC(=O)Nc1ccc2c(c1)CC(=O)N([C@@H](C)CO)C[C@H](C)[C@H](CN(C)C(=O)NC(C)C)O2 | -1 | 0.032 | -6 | /

Later entries.
SMILES | MITF inh | YB-1 expression | Shh pathway inh | PD-1 reverse act
COC(=O)COc1c(Sc2ccc([N+](=O)[O-])cc2)c(C)nn1-c1ccccc1 | 6 | / | / | -1.5
COc1cc(CC(CO)C(CO)Cc2ccc(O)c(OC)c2)ccc1O (stereo not given) | -6 | -0.12 | -34 | -1.0
Cc1ccc(S(=O)(=O)N(C)C[C@H]2Oc3ccc(NC(=O)NC4CCCCC4)cc3C(=O)N([C@@H](C)CO)C[C@@H]2C)cc1 | 3 | -0.03 | / | 0.6
Cc1ccc(S(=O)(=O)Nc2ccc3c(c2)C(=O)N([C@@H](C)CO)C[C@@H](C)[C@H](CN(C)Cc2ccc4c(c2)OCO4)O3)cc1 | -4 | -0.41 | 4 | /
CNC[C@@H]1Oc2c(NC(=O)NC3CCCCC3)cccc2C(=O)N([C@H](C)CO)C[C@H]1C | -10 | 0.11 | 8 | 0.2
CSc1ccccc1NC(=O)CN(C)S(=O)(=O)c1c(C)cc(C)cc1C | -4 | / | / | -2.7
C[C@@H]1CCCCO[C@H](CN(C)S(=O)(=O)c2ccc(Cl)cc2)[C@@H](C)CN([C@H](C)CO)C(=O)c2cc(NC(=O)NC3CCCCC3)ccc2O1 | 1 | 0.11 | 18 | /
C[C@@H]1CN([C@@H](C)CO)C(=O)Cc2cc(NS(=O)(=O)c3ccc(F)cc3)ccc2O[C@@H]1CN(C)CC1CCCCC1 | -11 | 0.41 | 26 | -3.2
C[C@@H]1CCCCO[C@H](CN(C)Cc2ccccc2)[C@@H](C)CN([C@H](C)CO)C(=O)c2cc(NC(=O)Nc3ccc(C(F)(F)F)cc3)ccc2O1 | -1 | -0.52 | / | /
C[C@@H]1CN([C@@H](C)CO)C(=O)c2cc(NC(=O)C3CCCCC3)ccc2O[C@@H]1CN(C)Cc1ccc2c(c1)OCO2 | -2 | -0.37 | 12 | -0.3
Cc1ccc2nsnc2c1S(=O)(=O)N1CCN(CCc2ccccc2)CC1 | 22 | / | / | 0.0
C[C@H](CO)N1C[C@H](C)[C@H](CN(C)Cc2ccc3c(c2)OCO3)Oc2ccc(NC(=O)NC3CCCCC3)cc2CC1=O | -1 | -0.2 | -20 | /
COc1ccc(S(=O)(=O)N(C)C[C@@H]2Oc3c(NS(=O)(=O)c4c(C)noc4C)cccc3C(=O)N([C@H](C)CO)C[C@@H]2C)cc1 | -7 | -0.32 | -1 | 0.9
CCCCC1(COC(=O)Nc2cccc(Cl)c2)C(=O)N(c2ccccc2)N(c2ccccc2)C1=O | 2 | -0.53 | 11 | -6.1
C[C@@H]1CCCCO[C@@H](CN(C)Cc2ccc(C(F)(F)F)cc2)[C@@H](C)CN([C@H](C)CO)C(=O)c2cc(NC(=O)Nc3ccc4c(c3)OCO4)ccc2O1 | 25 | -0.52 | -9 | 0.6
COC(=O)c1c(C)[nH]c(C)c1C(=O)c1ccccc1Cc1ccccc1 | 9 | 0.21 | -26 | /
COc1ccc(S(=O)(=O)N(C)C[C@@H]2Oc3ccc(NC(=O)NC4CCCCC4)cc3C(=O)N([C@H](C)CO)C[C@H]2C)cc1 | -8 | 0.073 | -33 | 1.1
C[C@H](CO)N1C[C@H](C)[C@H](CN(C)Cc2ccccc2)Oc2ccc(NC(=O)CCN3CCOCC3)cc2CC1=O | -5 | 0.28 | 41 | 2.1
CC(NS(=O)(=O)c1ccccc1)C(=O)Nc1ccc(Oc2ccccc2)cc1 (stereo not given) | 42 | / | / | 0.7
COC(=O)COc1ccc2c(=O)c(Oc3cnn(-c4ccccc4)c3)c(C(F)(F)F)oc2c1C | -6 | / | / | -1.0
C[C@@H]1CN([C@H](C)CO)C(=O)Cc2cc(NC(=O)C3CC3)ccc2O[C@H]1CN(C)C(=O)Nc1ccc(C(F)(F)F)cc1 | -1 | 0.1 | -22 | /
COc1ccc(NC(=O)c2ccco2)cc1NC(=O)c1cc(OC)c(OC)c(OC)c1 | -10 | / | / | -2.1

Assay outcomes deposited in PubChem by Broad Institute.

Only part of the results is shown (hit frequency here may not be typical).
